PINK1 modulator = A Quantitative High throughput Screen to Identify Chemical Modulators of PINK1 Expression | PINK1 immunofluorescence, high-content cytometry, 24 h | actives 0.2% (n = 410,000) | AID 624263, 2012 | Potency, µM (top dose mostly 76.6 µM), for the others: at the highest dose activation (PINK1 increase), actives largely listed as activators; active = well fitted activation curve with a large enough effect; inconclusive = small, poorly fitted or top-dose-only effect; inactive = flat fitted curve, though single readings scatter; cell line not stated here;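 further: potency means the concentration at half of the fitted maximal effect; % of control where 0% means no effect; nearly all actives have a fitted effect of over 65% in size; a mitochondrial uncoupler was the plate control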
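Cells are seeded, rested 12 hours, then given compound at five concentrations or DMSO for 24 hours. After fixation, blocking and antibody staining, PINK1 amount and mitochondrial localization are scored; CCCP serves as control.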
TRPML1 agonist = qHTS for Agonists of the Human Mucolipin Transient Receptor Potential 1 (TRPML1) | actives 0.12% (n = 410,000) | AID 624414, 2012 | activation, % (test concentration not listed) | TRPML1-expressing cells, Ca2+ dye fluorescence, FDSS; host cell line not named in the record; reference of the full effect not given here | Mucolipin-1 (Homo sapiens), Q9GZU1; in the data active = activation above about 50%; inconclusive = about 30% to 50%; inactive = below about 30%; further: 0% is about no effect; the text of the record puts the active cut at 80%
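Agonist activity was taken from a 110 s kinetic Ca2+ dye read on the FDSS after pinning compounds onto TRPML1-DL cells. The cells were seeded at 1,500/well with Tet inducer, incubated about 16 h, then dye-loaded at room temperature.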
TRPML1 inh = qHTS for Inhibitors of the Human Mucolipin Transient Receptor Potential 1 (TRPML1). Mucolipin-1 (Homo sapiens), Q9GZU1. activity change, negative = inhibition, % (no concentration beside the values). TRPML1-inducible cells, Ca2+ dye fluorescence, FDSS; hits give low values; inhibition of EC80 agonist-evoked calcium signal. actives 0.02% (n = 390,000); in the data active means activity change below about -50%; inconclusive means about -30% to -50%; inactive means above about -30%;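 further: stimulus is agonist 54-4 at its EC80 concentration; on the % scale 0 is the no-effect control and ±100 the full control effect; compound concentration not given in the record; the text of the record puts the active cut at -80%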
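TRPML1-DL cells, Tet-induced overnight (~16 h, 37 °C) at 1,500 cells/well, were loaded with Ca8 no-wash dye plus quencher for 45-90 min at room temperature. Compounds were pinned during FDSS kinetic reading; agonist 54-4 at EC80 (4 uM final) then added.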
Six1-Eya2 blk = qHTS Assay for Inhibitors of the Six1/Eya2 Interaction; Homeobox protein SIX1 (Homo sapiens) + Protein phosphatase EYA2 (Homo sapiens), …; AlphaScreen GST-Six1/His-Eya2 binding, biochemical; hits give low values; control for the full effect not named in the record; activity change, % (concentration not given with the values); actives 0.56% (n = 360,000); AID 651725, 2012; in the data active = activity change below about -65%; inconclusive = about -30% to -65%; inactive = above about -30%; further: on the % scale 0 is the no-effect control and ±100 the full control effect
Target sequence (O00167 whole entry, looked up): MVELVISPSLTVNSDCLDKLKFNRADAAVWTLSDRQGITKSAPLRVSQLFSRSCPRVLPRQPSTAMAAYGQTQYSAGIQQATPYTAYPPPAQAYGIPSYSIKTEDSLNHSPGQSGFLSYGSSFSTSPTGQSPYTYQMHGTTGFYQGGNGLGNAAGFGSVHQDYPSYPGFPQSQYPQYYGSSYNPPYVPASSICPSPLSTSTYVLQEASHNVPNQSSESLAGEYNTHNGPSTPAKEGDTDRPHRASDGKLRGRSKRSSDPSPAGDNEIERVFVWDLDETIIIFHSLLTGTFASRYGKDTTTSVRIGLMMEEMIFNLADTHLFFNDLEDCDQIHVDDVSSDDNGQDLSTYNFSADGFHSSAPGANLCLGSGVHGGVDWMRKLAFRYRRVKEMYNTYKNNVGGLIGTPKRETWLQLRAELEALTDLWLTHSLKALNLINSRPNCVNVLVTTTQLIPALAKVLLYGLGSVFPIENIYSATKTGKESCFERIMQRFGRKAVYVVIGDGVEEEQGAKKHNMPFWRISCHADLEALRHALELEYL
Target sequence (Q15475 whole entry, looked up): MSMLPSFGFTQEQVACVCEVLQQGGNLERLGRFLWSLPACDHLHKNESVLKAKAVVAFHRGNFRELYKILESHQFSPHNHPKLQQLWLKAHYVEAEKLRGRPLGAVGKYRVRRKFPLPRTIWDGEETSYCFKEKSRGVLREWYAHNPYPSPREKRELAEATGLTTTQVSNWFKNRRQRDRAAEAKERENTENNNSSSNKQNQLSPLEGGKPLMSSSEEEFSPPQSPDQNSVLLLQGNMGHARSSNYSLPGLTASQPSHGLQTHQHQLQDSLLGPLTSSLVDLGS
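Six1/Eya2 binding was read as AlphaScreen signal after compounds were pinned into GST-Six1 plus His-tagged Eya2 (5X stock 250/500 nM) in pH 8.0 Tris/NaCl/TCEP buffer, beads added, then incubated 1 h, 37 C, dark.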
CtBP-E1A inh = qHTS Assay for Inhibitors of the CtBP/E1A Interaction | AlphaScreen GST-E1A/His-CtBP binding, 1536-well; hits give low values; control for the full effect not named in the record | activity change, % (no concentration beside the values) | actives 0.49% (n = 340,000) | AID 651724, 2012; in the data active means activity change below about -65%; inconclusive means about -30% to -65%; inactive means above about -30%; further: on the % scale 0 is the no-effect control and ±100 the full control effect; compound concentration not given in the record
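Homogeneous bead-based format: GST-tagged E1A captured on glutathione donor beads, His-tagged CtBP on nickel acceptor beads; compounds precede bead addition by 2 h at 37 °C.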
D2 ag = Beta-Arrestin HTS for Positive Allosteric Modulators of the Human D2 Dopamine Receptor: Agonists; D(2) dopamine receptor (Homo sapiens), P14416; DiscoveRx PathHunter D2 beta-arrestin, luminescence, 90 min; 100% = 57 uM dopamine signal; activation, % (concentration not given with the values); actives 0.084% (n = 360,000); AID 624465, 2012; in the data active = activation above about 40%; inconclusive = about 15% to 40%; inactive = below about 15%; further: compound concentration not given in the record; the text of the record calls up to 30% inactive
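DiscoveRx PathHunter D2 beta-arrestin cells (2,100/well) attached overnight, then compound-stimulated 90 min at 37 C in HBSS/10 mM HEPES/0.1% Tween-20 buffer; beta-galactosidase complementation read by luminescence after 1 h at ambient temperature. Dopamine 57 uM final (EC100) as control.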
* hit, by the source's call; ? = inconclusive; . = no result given; [ ] = dose if it differs, or a comment. An unsorted share of the library, and some 1% of all compounds hit somewhere here.

compound	PINK1 modulator	TRPML1 agonist	TRPML1 inh	Six1-Eya2 blk	CtBP-E1A inh	D2 ag
O=C(CN1C(=O)CCS(=O)(=O)c2ccccc21)Nc1ccccc1F	0.2%	-0.2	4	4	4	1.6
Cc1[nH]n(-c2ccccc2)c(=O)c1CCOC(=O)c1cccc(C(F)(F)F)c1	0.9%	0.1	38	-3	3	-6.1
O=C(Cn1c(=O)c2cccn2c2cccnc21)N1CCN(c2ccccc2F)CC1	1.4%	-0.1	10	-5	-2	0.3
Cc1cc2n(n1)C(c1ccsc1)Nc1ccccc1-2 (centres undefined)	-2.3%	0.8	12	0	-5	-2.4
CCCNC(=O)C1CCN(Cc2cc3ccccc3n2Cc2ccccc2)CC1	21%	0.5	-14	.	.	.
NC(N)=N/N=C/c1ccc(Cl)c([N+](=O)[O-])c1	-0.8%	-0.5	-2	-12	-9	-3.0
CCN(CCCNC(=O)CN1N=C(c2ccccc2)CCC1=O)c1ccccc1	1.0%	1.7	-15	.	.	.
Cc1cccc(N2CCN(C(=O)CS(=O)(=O)Cc3nc(-c4ccccc4C)oc3C)CC2C)c1 (centres undefined)	0.3%	3.8	5	.	.	.
O=C(CCSc1nc2ccccc2s1)N/N=C/c1c(O)ccc2ccccc12	?	1.7	-8	3	2	-4.7
COc1cccc(NC(=O)Cn2c(=O)c3cccn3c3ccc(F)cc32)c1	0.8%	0.6	-22	.	.	.
CNC(=O)c1ccc(-c2nc(-c3ccccc3)cs2)cc1	1.1%	0.1	15	-10	-6	-0.9
N#CC1c2ccccc2-c2ccccc2N1C(=O)c1ccccc1 (centres undefined)	0.8%	4.5	-9	0	0	0.4
CCOC(=O)/C(=C\C=C1/Sc2ccccc2N1CC)C(C)=O	7.8%	89*	-7	?	0	4.1
COc1ccccc1N(CC(=O)NCCSc1ccccn1)S(=O)(=O)c1ccccc1	0.7%	1.2	-4	3	11	-0.5
S=c1[nH]cc(Cc2ccccc2)s1	3.2%	0.7	12	0	-5	-0.9
Cc1ccccc1C(=O)NC(=S)Nc1ccc2[nH]c(=O)[nH]c2c1	3.3%	-0.7	-6	-4	-1	1.0
O=C(NCc1ccco1)c1ccc(NS(=O)(=O)c2cccc([N+](=O)[O-])c2)cc1	-1.0%	-0.2	-9	-5	-6	2.7
COc1ccc(/C=C(/NC(=O)c2ccccc2)C(=O)NC(Cc2c[nH]c3ccccc23)C(=O)O)cc1 (centres undefined)	-1.2%	-0.5	2	-2	-5	-6.5
O=C(CSc1nncs1)N1CCN(S(=O)(=O)c2ccccc2)CC1	0.2%	-0.8	13	6	2	-2.2
CCN(C(=O)CSc1nnc(COc2cccc(C)c2)o1)c1nc(C)cs1	-1.6%	2.3	-4	-3	3	-4.5
O=C(COc1ccccc1[N+](=O)[O-])OC1CCS(=O)(=O)C1 (centres undefined)	2.4%	-0.4	-4	0	4	-3.0
CN(C)c1ccc(NC(=O)c2ccc(Cn3cc([N+](=O)[O-])cn3)cc2)cc1	-1.1%	3.4	-13	?	?	1.2
N=c1n(Cc2ccc(Cl)cc2)c2ccccc2n1CC(O)c1ccco1 (centres undefined)	1.4%	1.4	6	-10	-8	-6.9
Cc1cccc(C(=O)NCCc2nc3ccccc3n2CCC(C)C)c1	-0.2%	5.3	6	.	.	.
CNC(=O)CCc1nc(-c2ccc(C(C)(C)C)cc2)no1	0.1%	-0.8	1	1	4	-0.9
CS(=O)(=O)c1ccc(Cl)c(NC(=O)COC(=O)/C=C/c2cnc3ccccc3n2)c1	-0.8%	0.8	-5	9	3	-0.9
Cc1cccc(S(=O)(=O)c2c(N)n(Cc3ccco3)c3nc4ccccc4nc23)c1	13%	4.3	-5	2	-5	-2.5
Cc1cccc(N2C(N)=NC(N)=NC23CCCCC3)c1	-1.0%	0.0	3	9	-2	0.4
O=C(NCC1CCN(c2ccc(S(=O)(=O)N3CCOCC3)cc2)CC1)c1ccc(Cl)cc1	-0.8%	-0.1	16	-12	10	-2.2
Cc1cc(C(=O)CN2C(=O)NC3(CCCCC3)C2=O)c(C)n1-c1ccc2c(c1)OCO2	1.4%	0.0	6	0	-11	-1.2
CC1=C(C#N)C(Nc2cccc(C)n2)(C(F)(F)F)C(=O)N1 (centres undefined)	-1.9%	1.9	-21	4	7	2.0
COc1ccc(C2c3c4c(n(C)c3CCN2C)CCN(C)C4c2ccc(OC)cc2)cc1 (centres undefined)	-2.1%[38.3 µM]	0.7	-12	-8	-15	-2.2
O=C(Nc1ccncc1)c1cc(S(=O)(=O)N2CCN(c3ccccc3)CC2)ccc1Cl	2.1%	1.1	54	-7	-5	0.1
CCOC(=O)C1CCCN(c2c(C(=O)c3ccccc3)cnc3ccc(F)cc23)C1 (centres undefined)	0.5%	-0.7	-8	.	.	.
CCn1c(SCC(=O)NCc2ccco2)nc2ccccc2c1=O	0.0%	1.6	16	-2	6	2.3
Brc1ccccc1CN1CCC(Cc2ccccc2)CC1	17%	-0.3	9	45	5	-1.7
O=C1N/C(=C/c2ccc(N3CCCC3)cc2)C(=O)N1c1ccccc1	?	4.4	7	3	18	-2.3
O=C(NNS(=O)(=O)c1ccc(F)cc1)c1ccc(S(=O)(=O)N2CCCCC2)cc1	-1.6%	-1.4	28	5	0	-1.8
Cc1nc2ccc(S(=O)(=O)Nc3cc(-c4nc5cccnc5s4)ccc3C)cc2s1	14%	-0.5	5	-25	-19	-4.5
COc1ccc(-c2csc3ncnc(N4CCN(c5ccc(OC)cc5)CC4)c23)cc1	1.2%	-0.4	4	?	?	-0.8
CCOc1ccccc1N(C)S(=O)(=O)c1ccc2[nH]cc(C(=O)N(CCOC)CCOC)c(=O)c2c1	0.7%	0.2	0	-13	3	-3.2
COc1ccc(CCNc2nc(SCc3cccc(Cl)c3)nc3ccccc23)cc1OC	0.8%	2.4	11	.	.	.
Cc1nc2nc(-c3cccnc3)nn2c(C)c1Cl	-1.4%	0.8	-1	-3	-1	-1.3
Cc1ccc(S(=O)(=O)N(C)C)cc1NC(=O)c1ccncc1	-0.8%	0.4	-23	6	-2	-9.7
CC(=O)c1cccc(-n2nnnc2SCC(=O)Nc2cc(C)on2)c1	-0.5%	-0.8	4	0	0	-3.8
Cc1cc(C)cc(NC(=S)N2CCC(NC(=O)C3CC3)CC2)c1	-0.4%	0.1	-10	7	-3	-3.5
COc1cc(OC)c(NC2=CC(=O)C(=O)c3ccccc32)cc1Cl	0.7%	3.5	-4	-29	.	-5.5
CCn1c(SCC(=O)N2CCCC2)nnc1-c1ccc(S(=O)(=O)N2CCCCCC2)cc1	-3.3%[38.3 µM]	-1.0	12	3	-2	-1.5
Cn1c(=O)c2c(nc(CN3CCN(C(=O)c4ccco4)CC3)n2Cc2cccc(Cl)c2)n(C)c1=O	-4.5%[38.3 µM]	-0.4	6	?	?	2.5
COc1ccc(C(C)=O)cc1COc1cc(C)c(Cl)c(C)c1	7.1%	1.9	-11	8	.	-6.1
Cc1cc(NC(=O)CSc2nnc(C3CC3)n2-c2ccccc2)no1	0.6%	3.1	-5	17	3	-2.7
O=C(N/N=C/C(Br)=C/c1ccccc1)c1ccncc1	1.4%	-0.5	8	?	.	-1.3
CC(C)Cc1nnc(NC(=O)CCC(=O)NC2CC2)s1	0.6%	-0.3	-1	0	.	2.4
Cc1cc2nc(-c3cccc(Br)c3)c(CC3CCCCC3)n2c(C)c1Br	1.3%	0.1	.	4	3	.
O=C(Nc1ncnc2sc3c(c12)CCCCC3)c1ccco1	3.8%	1.0	11	-3	-7	-0.4
O=C(Cc1ccc([N+](=O)[O-])cc1)Nc1ccc2c(c1)C(=O)NC2=O	6.9%	1.6	12	-8	-1	-1.0
O=C(CS(=O)(=O)c1ccc(F)cc1)Nc1nnc(-c2cccs2)o1	1.5%	-0.1	32	-16	-28	1.0
COc1ccc(S(=O)(=O)N2CCOCC2)cc1NC(=O)c1ccccc1C	1.0%	1.9	-16	-5	-14	-3.2
CC(C)OC(=O)CSc1nnc(-c2ccco2)n1N	-1.3%	0.3	-11	4	-6	0.1
O=C(CN1C(=O)c2ccccc2C1=O)OCC(=O)N1CCN(c2ccccc2)CC1	1.9%	-0.7	-4	5	2	-1.2

An excerpt of these results, with two lines to a compound.
Every second line gives: PINK1 modulator, TRPML1 agonist, TRPML1 inh, Six1-Eya2 blk, CtBP-E1A inh, D2 ag
- CC(C)Cc1nnc(NC(=O)CCC(=O)NC2CC2)s1
 : 0.6%, -0.3, -1, 0, ., 2.4
- Cc1cc2nc(-c3cccc(Br)c3)c(CC3CCCCC3)n2c(C)c1Br
 : 1.3%, 0.1, ., 4, 3, .

The results go on:
compound	PINK1 modulator	TRPML1 agonist	TRPML1 inh	Six1-Eya2 blk	CtBP-E1A inh	D2 ag
COc1ccc(C2=NN(C(=S)Nc3ccccc3)C(c3ccccc3)C2)cc1 (centres undefined)	6.5%	0.4	28	-20	2	-4.5
COc1ccc(C(=O)Nc2ccc(Cl)cc2C(=O)NCc2ccco2)cc1	9.6%	2.5	-19	-1	-1	-4.8
CCCN(CC(=O)Nc1ccc(Cl)cc1Cl)C(=O)/C=C/c1cccc([N+](=O)[O-])c1	4.8%	0.8	6	-19	-17	-3.5
CN(c1ccccc1)S(=O)(=O)c1cccc(C(=O)Nc2cccc(C(=O)NC3CC3)c2)c1	-3.3%	1.5	10	-1	-1	0.6
S=c1[nH]nc(-c2ccc(Br)cc2)n1-c1ccc(Br)cc1	1.2%	.	.	7	.	4.0
CCC(=O)N(Cc1cc2ccc(C)cc2n2nnnc12)C1CCCCC1	-0.1%	1.2	0	7	3	2.0
CC(Nc1ccccc1)c1cccnc1 (centres undefined)	0.4%	0.0	-2	9	1	-1.7
CCN(c1cccc(C)c1)S(=O)(=O)c1ccc2[nH]c(=O)c(=O)[nH]c2c1	-1.7%[38.3 µM]	-0.1	-11	0	0	-2.8
COc1cccc(CNc2nc3nc(C)cc(C)n3n2)c1	-2.8%	-0.2	10	0	6	-2.6
NC1=NS(=O)(=O)NC1c1ccc(F)cc1 (centres undefined)	-0.5%	0.5	15	3	7	1.8
c1csc(-c2noc(CN3CCc4sccc4C3)n2)c1	0.3%	-0.5	-6	-2	13	-2.2

Source: PubChem BioAssay
